Source: PubChem (National Center for Advancing Translational Sciences (NCATS))
Six1-Eya2 inh: Six1/Eya2 interaction inhibition; Q15475+O00167; AlphaScreen GST-Six1/His-Eya2 binding, biochemical; stronger effect = lower value; control for the full effect not named in the record; activity change, % (concentration not given with the values); 0.56% of 360,000 active; AID 651725; in the data active = activity change below about -65%; inconclusive = about -30% to -65%; inactive = above about -30%; note: % is set by controls: 0 for no effect and ±100 for the full control effect
Target sequence (O00167 whole entry, looked up): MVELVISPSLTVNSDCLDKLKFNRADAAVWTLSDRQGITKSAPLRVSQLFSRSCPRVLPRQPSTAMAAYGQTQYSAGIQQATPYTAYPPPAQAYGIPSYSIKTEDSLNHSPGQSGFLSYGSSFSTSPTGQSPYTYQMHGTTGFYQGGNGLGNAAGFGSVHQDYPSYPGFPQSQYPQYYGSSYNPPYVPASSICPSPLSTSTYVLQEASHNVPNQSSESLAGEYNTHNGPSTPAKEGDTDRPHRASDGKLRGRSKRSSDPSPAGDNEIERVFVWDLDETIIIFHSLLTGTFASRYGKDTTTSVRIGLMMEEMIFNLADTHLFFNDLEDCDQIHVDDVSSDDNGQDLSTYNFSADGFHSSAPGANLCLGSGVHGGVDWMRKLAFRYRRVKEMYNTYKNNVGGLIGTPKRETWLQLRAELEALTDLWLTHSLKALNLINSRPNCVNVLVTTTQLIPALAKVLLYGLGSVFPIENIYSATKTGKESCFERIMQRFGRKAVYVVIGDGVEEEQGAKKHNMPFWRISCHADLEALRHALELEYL
Target sequence (Q15475 whole entry, looked up): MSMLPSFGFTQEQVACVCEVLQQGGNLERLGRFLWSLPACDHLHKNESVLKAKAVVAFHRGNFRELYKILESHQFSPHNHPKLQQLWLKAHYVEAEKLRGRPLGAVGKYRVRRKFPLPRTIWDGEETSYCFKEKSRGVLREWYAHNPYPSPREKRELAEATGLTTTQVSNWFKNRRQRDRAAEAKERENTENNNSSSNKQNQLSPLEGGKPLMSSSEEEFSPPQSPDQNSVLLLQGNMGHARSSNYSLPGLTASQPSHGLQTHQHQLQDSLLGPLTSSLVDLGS
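AlphaScreen with GST-Six1 and His-Eya2 (5X mix: 250 nM and 500 nM), glutathione donor and nickel acceptor beads; buffer 50 mM Tris pH 8.0, 300 mM NaCl, 1 mM TCEP; 1 h at 37 C in the dark.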
D2 agonist: activates the human D2 dopamine receptor. DiscoveRx PathHunter D2 beta-arrestin, luminescence, 90 min; 100% = 57 uM dopamine signal. activation, % (no concentration beside the values). 0.084% of 360,000 active. AID 624465; in the data active = activation above about 40%; inconclusive = about 15% to 40%; inactive = below about 15%; note: compound concentration not given in the record; the text of the record calls up to 30% inactive
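Agonist mode: compounds alone added to overnight-plated D2 PathHunter cells for 90 min at 37 C, with 57 uM final dopamine (EC100) defining full response. Beta-arrestin recruitment detected by chemiluminescent reagent, read after 1 h at ambient temperature.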
TRPML1 agonist: agonists of human TRPML1 channel. Q9GZU1. TRPML1-expressing cells, Ca2+ dye fluorescence, FDSS; host cell line not named in the record; reference of the full effect not given here. activation, % (concentration not given with the values). 0.12% of 410,000 active; in the data active = activation above about 50%; inconclusive = about 30% to 50%; inactive = below about 30%; note: 0% is about no effect; the text of the record puts the active cut at 80%
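Agonist activity was taken from a 110 s kinetic Ca2+ dye read on the FDSS after pinning compounds onto TRPML1-DL cells. The cells were seeded at 1,500/well with Tet inducer, incubated about 16 h, then dye-loaded at room temperature.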
D2 PAM: positive allosteric modulators of human D2 dopamine receptor; DiscoveRx D2 beta-arrestin cells, luminescence, 90 min; 100% = 57 uM dopamine signal; 0.23% of 360,000 active; potentiation, % (test concentration not listed); AID 624464; P14416; active = potentiation of 50% or more; inconclusive = 30% to 50%; inactive = 30% or less;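 note: compound concentration not given in the record; tested on top of an EC20 dose of dopamine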
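PathHunter D2 cells, attached overnight at 37 deg C, received compound in DMSO plus dopamine at EC20 (50 nM final) for 90 min at 37 deg C. Beta-arrestin recruitment was read as luminescence after 1 h with detection reagent at ambient temperature.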
PINK1 modulator: changes PINK1 expression | PINK1 immunofluorescence, high-content cytometry, 24 h | Potency, µM (doses to about 76.6 µM), without a hit: top-dose activation (PINK1 increase), actives largely listed as activators | 0.2% of 410,000 active; active = well fitted activation curve with a large enough effect; inconclusive = small, poorly fitted or top-dose-only effect; inactive = flat fitted curve, though single readings scatter; cell line not stated here;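 note: potency is the fitted concentration of half-maximal effect; % of control where 0% means no effect; nearly all actives have a fitted effect of over 65% in size; a mitochondrial uncoupler was the plate control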
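Fluorescence from anti-PINK1 antibody, together with nuclear and cell stains, was scanned on a laser-scanning cytometer. Before staining, stable-line cells were incubated 24 hours with compounds at 5 concentrations; primary antibody 12 h at 10 degrees C.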
TRPML1 blocker: blocks the human TRPML1 channel; AID 624415; TRPML1-inducible cells, Ca2+ dye fluorescence, FDSS; stronger effect = lower value; inhibition of EC80 agonist-evoked calcium signal; activity change, negative = inhibition, % (concentration not given with the values); 0.02% of 390,000 active; in the data active means activity change below about -50%; inconclusive means about -30% to -50%; inactive means above about -30%;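 note: stimulus is agonist 54-4 at its EC80 concentration; % is set by controls: 0 for no effect and ±100 for the full control effect; compound concentration not given in the record; the text of the record puts the active cut at -80%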
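Tet-induced TRPML1-DL cells loaded with Ca8 no-wash calcium dye were read kinetically on FDSS. Compound addition was followed by EC80 agonist 54-4 (4 uM final); inhibition was read over 110 s.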
* = called active by the depositor; u = inconclusive; x = not tested or not shown; & = joins results of further samples; [ ] = remark or other dose.

#1 O=C(C[n+]1ccccc1)N/N=C/c1cccs1
#2 COC(=O)c1cccc(NC(=O)Nc2ccc(Cl)cc2)c1
#3 COc1cccc(C(=O)Nn2c(-c3cccs3)nc3ccccc3c2=O)c1OC
#4 Cc1cc(C)nc(S/C=C/C(=O)c2ccccc2)n1
#5 COc1ccc(Nc2nc(Nc3ccc(OC)cc3OC)nc(N3CCN(C)CC3)n2)c(OC)c1
#6 CCOc1ccccc1NC(=O)Cn1c(=O)n(-c2ccc(Cl)cc2)c(=O)c2oc3ccccc3c21
#7 Cn1cnc([N+](=O)[O-])c1Oc1cccc(O)c1
#8 COc1cccc(N2C(=O)CC(N3CCN(CCN=CC4=C(O)CC(C)(C)CC4=O)CC3)C2=O)c1 (stereo unspecified)
#9 Cc1cc(N/N=C/c2cccc(Cl)c2)nc(-n2nc(C)cc2C)n1
#10 Cc1sc2ncnc(SCC(=O)N3CCOCC3)c2c1C
assay / compound | 1 | 2 | 3 | 4 | 5 | 6 | 7 | 8 | 9 | 10
D2 agonist | -4.0 | 1.2 | 7.4 | -1.1 | -6.2 | x | -3.5 | 1.5 | -5.7 | -1.8
Six1-Eya2 inh | -25 | 1 | -4 | -11 | -2 | x | 1 | 10 | 4 | 4
TRPML1 agonist | -0.1 | 0.2 | 1.0 | 2.3 | -0.5 | -0.3 | -0.4 | -0.3 | -0.7 | -0.4
TRPML1 blocker | -5 | -5 | -5 | 12 | 8 | -4 | -16 | -7 | -4 | -12
D2 PAM | -2 | -5 | -7 | -4 | -7 | x | -16 | -5 | -2 | -1
PINK1 modulator | 0.4% | 6.3% | 3.5% | 0.1% | -3.8% | -0.4% | -1.2% | 2.8% | 12% | 0.8%

Of the compounds above, 3 have an aryl methoxy group:
#3 COc1cccc(C(=O)Nn2c(-c3cccs3)nc3ccccc3c2=O)c1OC
#5 COc1ccc(Nc2nc(Nc3ccc(OC)cc3OC)nc(N3CCN(C)CC3)n2)c(OC)c1
#8 COc1cccc(N2C(=O)CC(N3CCN(CCN=CC4=C(O)CC(C)(C)CC4=O)CC3)C2=O)c1 (stereo unspecified)
assay / compound | 3 | 5 | 8
D2 agonist | 7.4 | -6.2 | 1.5
Six1-Eya2 inh | -4 | -2 | 10
TRPML1 agonist | 1.0 | -0.5 | -0.3
TRPML1 blocker | -5 | 8 | -7
D2 PAM | -7 | -7 | -5
PINK1 modulator | 3.5% | -3.8% | 2.8%

Going on with the list:
#11 CN(C(=O)CSc1nnc(NC2CCCCC2)s1)C1CCS(=O)(=O)C1 (stereo unspecified)
#12 COCC1CCN(C(=O)C2CCC(=O)N(C3CCCC3)C2)CC1 (stereo unspecified)
#13 CCCCC(=O)OC1=CN(Cc2ccccc2)S(=O)(=O)c2ccccc21
#14 Cc1ccc(C)c(CN2C(=O)c3ccccc3S(=O)c3ccc(C(=O)N4CCOCC4)cc32)c1 (stereo unspecified)
#15 CCOc1ccc(C(=O)N2CCN(C(=O)c3ccco3)CC2)cc1OCC
#16 Cc1cc(C)nc(NS(=O)(=O)c2ccc(N)cc2)n1
#17 COc1cccc(/C=N/NC(=O)CCCc2ccc(OC)c(C)c2)c1
#18 Clc1ccccc1-c1cccc2nccn12
#19 O=C(O)Cc1ccc(-c2ccccc2-c2ccccc2)cc1
#20 O=C1CCc2cc(S(=O)(=O)N3CCCC3C(=O)N3CCN(c4ccccc4F)CC3)ccc2N1 (stereo unspecified)
assay / compound | 11 | 12 | 13 | 14 | 15 | 16 | 17 | 18 | 19 | 20
D2 agonist | -0.7 | 2.4 | x | x | 1.7 | -2.3 | -6.0 | -7.4 | 1.9 | -6.2
Six1-Eya2 inh | -1 | 3 | x | x | 2 | -4 | -6 | 20 | 6 | 16
TRPML1 agonist | -1.1 | 0.3 | 2.1 | -0.7 | -0.6 | -0.5 | 2.1 | -0.6 | 0.2 | 0.6
TRPML1 blocker | -8 | 4 | 39 | 16 | 3 | -16 | 2 | x | 27 | 1
D2 PAM | -6 | -2 | x | x | 9 | 5 | -9 | -4 | 1 | -1
PINK1 modulator | 0.9% | -1.3% | -0.3% | 0.3% | x | 0.3% | -3.4% | 3.0% | -2.7% | 2.8%

#21 CCc1nnc(NC(=O)CCN2C(=O)/C(=C/c3cc(OC)c(OC)c(OC)c3)SC2=S)s1
#22 CCc1nnc(NC(=O)C(C)N2C(=O)C3C4C=CC(C4)C3C2=O)s1 (stereo unspecified)
#23 O=C1CN(C(=O)COc2c(F)c(F)cc(F)c2F)c2ccccc2N1
#24 CC(C)(C)c1ccc(-c2csc(NNC3=NCCCCC3)n2)cc1
#25 COc1ccc2oc(/C=C/N(C)C)c(C(=O)c3ccc(Cl)cc3)c2c1
#26 Cc1ccc(Cn2c3ccccc3c3cnn(CC(=O)N4CCCCCC4)c(=O)c32)cc1
#27 CCOC(=O)N1CCN(Cc2c(O)ccc3ccccc23)CC1
#28 COc1cccc(CNC(=O)C2CCCN(S(=O)(=O)c3cn(C)cn3)C2)c1 (stereo unspecified)
#29 Cc1noc(C)c1CSc1nc2ccccc2[nH]1
#30 CCN(CC)C(=O)c1cccc(NC(=O)CCc2nc3sc4c(c3c(=O)[nH]2)CCCC4)c1
assay / compound | 21 | 22 | 23 | 24 | 25 | 26 | 27 | 28 | 29 | 30
D2 agonist | -0.8 | -2.0 | 2.8 | -4.5 | -5.1 | x | 0.1 | x | -0.5 | 1.3
Six1-Eya2 inh | -5 | 4 | 0 | -10 | -8 | x | 3 | x | 9 | -2
TRPML1 agonist | 0.5 | 0.3 | -0.5 | 0.1 | -0.1 | 2.1 | 2.5 | 1.3 | 0.8 | 1.3
TRPML1 blocker | 8 | 8 | -8 | 1 | 0 | 11 | 16 | -2 | 13 | 4
D2 PAM | 0 | -4 | 4 | -23 | -6 | x | -1 | x | -11 | -19
PINK1 modulator | 18% | -3.0% | -1.0% | u | 6.2%[38.3 µM] | -0.2% | 2.3% | 0.2% | 6.9% | 4.3%

For convenience, 4 of the compounds above:
#1 O=C(C[n+]1ccccc1)N/N=C/c1cccs1
#2 COC(=O)c1cccc(NC(=O)Nc2ccc(Cl)cc2)c1
#3 COc1cccc(C(=O)Nn2c(-c3cccs3)nc3ccccc3c2=O)c1OC
#4 Cc1cc(C)nc(S/C=C/C(=O)c2ccccc2)n1
assay / compound | 1 | 2 | 3 | 4
D2 agonist | -4.0 | 1.2 | 7.4 | -1.1
Six1-Eya2 inh | -25 | 1 | -4 | -11
TRPML1 agonist | -0.1 | 0.2 | 1.0 | 2.3
TRPML1 blocker | -5 | -5 | -5 | 12
D2 PAM | -2 | -5 | -7 | -4
PINK1 modulator | 0.4% | 6.3% | 3.5% | 0.1%

Continuation:
#31 CC(C)Cc1nc2oc3c(=O)[nH]cnc3c2c2c1CCCC2
#32 CN(CC(=O)NCc1ccccc1Cl)CC(=O)Nc1ccccc1Br
#33 CCCSc1nc2sc3c(c2c(=O)[nH]1)CC(C)(CC)OC3 (stereo unspecified)
#34 COc1ccc(N2CCN(C(=O)CSc3nnc4nc(C)cc(C)n34)CC2)cc1
#35 O=C(NCCC1=CCCCC1)C1CCCN(S(=O)(=O)c2cccnc2)C1 (stereo unspecified)
#36 O=C(Nc1cc(S(=O)(=O)N2CCCCC2)ccc1Cl)c1ccccc1NS(=O)(=O)c1ccc(F)cc1
#37 CCOC(=O)c1c(CN2CCN(CC#N)CC2)n(C)c2cc(Br)c(OC)cc12
#38 COc1ccc(S(=O)(=O)N(CCc2ccccc2)CC(=O)N2CCOCC2)cc1
#39 CCCCNC(=O)c1cnc2c(-c3ccc(OCC)c(OCC)c3)c(C)nn2c1-c1ccccc1
#40 Cc1cc(=O)[nH]c(SCC(=O)C23CC4CC(CC(C4)C2)C3)c1C#N
assay / compound | 31 | 32 | 33 | 34 | 35 | 36 | 37 | 38 | 39 | 40
D2 agonist | 3.5 | -3.5 | -5.2 | -0.3 | -2.6 | 3.8 | -3.3 | -1.6 | x | -0.3
Six1-Eya2 inh | -13 | 5 | -2 | 2 | 0 | 3 | -12 | 2 | x | 11
TRPML1 agonist | 0.4 | -0.1 | 0.3 | -0.2 | 0.8 | 1.0 | 0.7 | -0.9 | 1.6 | 1.4
TRPML1 blocker | -4 | 1 | -1 | -6 | -29 | 26 | 36 | 3 | 1 | 34
D2 PAM | -10 | -1 | 1 | -5 | -6 | 25 | -6 | -9 | x | 8
PINK1 modulator | 6.2% | 0.3% | 9.7% | -5.1%[38.3 µM] | 3.7% | u | 0.7% | -0.1% | 4.8% | 8.2%[38.3 µM]

#41 CCOC(=O)C1=C[C@@H](C(C)C)N(S(=O)(=O)c2ccc([N+](=O)[O-])cc2)[C@H]1c1ccccc1
#42 COc1ccc(C(=O)COC(=O)c2cncc(Br)c2)cc1
#43 Cc1ccc(NC(=O)C2CC(=O)N(CCc3ccccc3)C2)cc1Cl (stereo unspecified)
#44 COc1cc(CN(C2CCCCC2C)S(=O)(=O)c2ccc(S(=O)(=O)NC3CC3)cc2)cc(OC)c1OC (stereo unspecified)
#45 COc1cc(C(CCN2CCN(c3ccccc3)CC2)c2c(OC)cc(OC)c3c(C)cc(=O)oc23)cc(OC)c1OC (stereo unspecified)
#46 CC1CCC(NC(=O)C2CCN(S(=O)(=O)c3cccc4nonc34)CC2)CC1 (stereo unspecified)
#47 O=C(CNC(=O)C(c1ccccc1)c1ccccc1)N/N=C/c1ccc(O)cc1O
#48 NCCCC[C@@H](C(=O)N1CCNCC1)n1cc([C@@H](N)CO)nn1
#49 Cc1cc(=O)[nH]c(SCC(=O)N2CCN(C(c3ccccc3)c3ccccc3)CC2)n1
#50 CN(CC(=O)NCc1ccncc1)S(=O)(=O)c1ccc(Br)cc1
#51 CC1CCN(C(=O)COC(=O)c2cccc(S(=O)(=O)N(C)c3ccccc3)c2)CC1
assay / compound | 41 | 42 | 43 | 44 | 45 | 46 | 47 | 48 | 49 | 50 | 51
D2 agonist | 4.2 | -1.7 | -2.9 | 4.5 | 0.1 | -1.8 | -4.4 | -4.7 | -4.1 | -6.3 | 1.9
Six1-Eya2 inh | -27 | 3 | -3 | 2 | u | 4 | u | 3 | 12 | -1 | 5
TRPML1 agonist | 2.4 | -1.0 | -0.5 | 5.3 | 0.9&-0.1 | -0.3 | 5.1 | -1.0 | -1.0 | -0.3 | 0.6
TRPML1 blocker | 3 | 12 | -12 | -1 | -13&19 | -6 | 0 | 36 | -16 | -5 | -12
D2 PAM | 13 | 2 | -5 | -3 | -27 | -4 | -11 | -6 | -16 | -21 | 5
PINK1 modulator | 5.6% | 1.8% | 0.2% | 1.2% | 0.1% | -0.1% | -0.2% | 0.2% | -0.3% | -0.4% | 1.2%

Two records drawn at random from the list so far, as already listed:
#20 O=C1CCc2cc(S(=O)(=O)N3CCCC3C(=O)N3CCN(c4ccccc4F)CC3)ccc2N1 (stereo unspecified)
#25 COc1ccc2oc(/C=C/N(C)C)c(C(=O)c3ccc(Cl)cc3)c2c1
assay / compound | 20 | 25
D2 agonist | -6.2 | -5.1
Six1-Eya2 inh | 16 | -8
TRPML1 agonist | 0.6 | -0.1
TRPML1 blocker | 1 | 0
D2 PAM | -1 | -6
PINK1 modulator | 2.8% | 6.2%[38.3 µM]
